# Screening results deposited in PubChem BioAssay by National Center for Advancing Translational Sciences (NCATS).
# D2 ag – agonists of human D2 dopamine receptor (beta-arrestin); P14416; AID 624465; 0.084% of 360,000 active; activation, % (test concentration not listed); DiscoveRx PathHunter D2 beta-arrestin, luminescence, 90 min; 100% = 57 uM dopamine signal; in the data active = activation above about 40%; inconclusive = about 15% to 40%; inactive = below about 15%; also: compound concentration not given in the record; the text of the record calls up to 30% inactive
# Target sequence (P14416 whole entry, looked up): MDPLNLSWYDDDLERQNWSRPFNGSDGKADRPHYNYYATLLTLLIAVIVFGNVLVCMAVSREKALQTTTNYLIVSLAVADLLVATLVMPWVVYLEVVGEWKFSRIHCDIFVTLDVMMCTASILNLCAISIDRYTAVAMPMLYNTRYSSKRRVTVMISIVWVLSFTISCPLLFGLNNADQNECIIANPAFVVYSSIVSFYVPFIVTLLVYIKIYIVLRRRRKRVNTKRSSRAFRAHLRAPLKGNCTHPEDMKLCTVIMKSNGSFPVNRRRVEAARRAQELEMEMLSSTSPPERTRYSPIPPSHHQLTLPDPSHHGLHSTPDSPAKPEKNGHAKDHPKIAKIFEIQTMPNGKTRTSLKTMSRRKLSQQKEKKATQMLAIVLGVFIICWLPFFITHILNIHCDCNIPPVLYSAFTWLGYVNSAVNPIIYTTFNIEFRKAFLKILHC
#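 Agonist mode: compounds alone added to overnight-plated D2 PathHunter cells for 90 min at 37 C, with 57 uM final dopamine (EC100) defining full response. Beta-arrestin recruitment detected by chemiluminescent reagent, read after 1 h at ambient temperature.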
# D2 PAM – potentiates the human D2 dopamine receptor allosterically | P14416 | DiscoveRx D2 beta-arrestin cells, luminescence, 90 min; 100% = 57 uM dopamine signal | potentiation, % (test concentration not listed) | 0.23% of 360,000 active | AID 624464; active = potentiation of 50% or more; inconclusive = 30% to 50%; inactive = 30% or less;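 also: compound concentration not given in the record; tested on top of an EC20 dose of dopamine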
#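 D2 cells co-treated with compound plus 50 nM dopamine (EC20) for 90 min at 37 deg C to detect potentiation. Beta-arrestin recruitment was read as enzyme-fragment luminescence after 1 h at ambient temperature. Full response was set by 57 uM dopamine.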
# CtBP-E1A blk – CtBP/E1A binding inhibition; AlphaScreen GST-E1A/His-CtBP binding, 1536-well; hits give low values; control for the full effect not named in the record; activity change, % (test concentration not listed); 0.49% of 340,000 active; AID 651724; in the data active means activity change below about -65%; inconclusive means about -30% to -65%; inactive means above about -30%; also: % is scaled to controls: 0 for no effect and ±100 for the full control effect; compound concentration not given in the record
#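 GST-E1A and His-tagged CtBP (125 nM each as 5X stock) were preincubated with pin-transferred compound for 2 h at 37 °C in the dark, then glutathione donor and nickel acceptor beads were added for 1 h before AlphaScreen reading.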
# TRPML1 agonist – activates the human TRPML1 channel; activation, % (concentration not given with the values); 0.12% of 410,000 active; Q9GZU1; TRPML1-expressing cells, Ca2+ dye fluorescence, FDSS; host cell line not named in the record; reference of the full effect not given here; in the data active = activation above about 50%; inconclusive = about 30% to 50%; inactive = below about 30%; also: 0% is about no effect; the text of the record puts the active cut at 80%
# Target sequence (Q9GZU1 whole entry, looked up): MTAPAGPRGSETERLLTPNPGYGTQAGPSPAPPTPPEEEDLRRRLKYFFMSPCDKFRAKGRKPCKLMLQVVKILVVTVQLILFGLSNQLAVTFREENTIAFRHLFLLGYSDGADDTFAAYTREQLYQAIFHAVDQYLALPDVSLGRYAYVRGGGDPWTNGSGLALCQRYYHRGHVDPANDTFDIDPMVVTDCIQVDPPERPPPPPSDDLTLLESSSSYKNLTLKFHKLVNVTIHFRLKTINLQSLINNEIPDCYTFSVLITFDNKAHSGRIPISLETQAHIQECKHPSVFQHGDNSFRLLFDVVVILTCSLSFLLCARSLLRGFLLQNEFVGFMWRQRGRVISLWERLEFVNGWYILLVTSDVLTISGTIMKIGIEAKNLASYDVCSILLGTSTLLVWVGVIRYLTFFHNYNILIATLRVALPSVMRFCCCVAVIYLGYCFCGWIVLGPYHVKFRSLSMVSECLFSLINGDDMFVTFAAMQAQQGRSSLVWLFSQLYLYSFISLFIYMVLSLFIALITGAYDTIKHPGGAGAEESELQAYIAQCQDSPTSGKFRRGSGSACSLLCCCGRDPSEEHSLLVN
#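 In this qHTS format, compounds were pin-transferred onto Ca8-dye-loaded TRPML1-DL cells induced with Tet overnight, and intracellular Ca2+ fluorescence was recorded kinetically for 110 s after a 10 s baseline. A subsequent 4uM final 54-4 (EC80) addition followed by a second 110 s read served as the antagonist phase.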
# Six1-Eya2 blk – blocks human Six1 binding to Eya2; Q15475+O00167; AlphaScreen GST-Six1/His-Eya2 binding, biochemical; hits give low values; control for the full effect not named in the record; activity change, % (concentration not given with the values); 0.56% of 360,000 active; AID 651725; in the data active = activity change below about -65%; inconclusive = about -30% to -65%; inactive = above about -30%; also: % is scaled to controls: 0 for no effect and ±100 for the full control effect
#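 Six1/Eya2 binding was read as AlphaScreen signal after compounds were pinned into GST-Six1 plus His-tagged Eya2 (5X stock 250/500 nM) in pH 8.0 Tris/NaCl/TCEP buffer, beads added, then incubated 1 h, 37 C, dark.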
# PINK1 expr mod – changes PINK1 expression. PINK1 immunofluorescence, high-content cytometry, 24 h. Potency, µM (titrated, usually from 76.6 µM), without a hit: top-dose activation (PINK1 increase), hits mostly activators. 0.2% of 410,000 active; active = well fitted activation curve with a large enough effect; inconclusive = small, poorly fitted or top-dose-only effect; inactive = flat fitted curve, though single readings scatter; cell line not stated here;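 also: potency is read from the fitted curve at half-maximal effect; % of control where 0% means no effect; nearly all actives have a fitted effect of over 65% in size; a mitochondrial uncoupler was the plate control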
#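 A stable cell line was treated with compounds at 5 concentrations for 24 hours, with CCCP as control. PINK1 levels and mitochondrial localization were measured by immunofluorescence with mitochondrial, cell and nuclear markers after fixation, read by laser-scanning cytometry.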
# Numbers without * were called inactive; ? = inconclusive; nt = not tested or not shown; [ ] = remark or other dose.
SMILES,D2 ag,D2 PAM,CtBP-E1A blk,TRPML1 agonist,Six1-Eya2 blk,PINK1 expr mod
COc1ccc([C@@H]2C=C(C(=O)O)O[C@H](OCCCCO)C2)cc1,-2.8,-2.1,-3.2,3.0,-7.8,-0.4%
Cc1cccc(C)c1NC(=O)CSc1nnc(-c2cnccn2)n1C,-5.3,-6.5,1.3,-0.1,4.0,-0.7%
COCCNC(=O)c1c[nH]c2cc(OC)c(OC)cc2c1=O,-3.1,1.0,?,-0.2,?,0.3%
CCCC(=O)Nc1cc(C)c(NC(=O)c2ccco2)cn1,2.0,-1.9,3.2,0.5,14.1,2.5%
CCOc1cccc(C2C(C#N)=C(N)Oc3cc(C)n(Cc4ccccn4)c(=O)c32)c1OCC (configuration not stated),-0.7,-2.8,-4.7,?,-0.8,-1.3%
CCN1CCc2nc3ccccc3c(C(=O)Nc3ccc(C#N)cc3)c2C1,-3.5,-2.1,nt,0.6,-4.8,2.8%
CCN(CC)c1ccc(N=Nc2nn(C)c(C)c2[N+](=O)[O-])cc1,-5.7,-39.3,?,1.6,-66.9*,6.0%
C=CCNC(=O)C1CC2c3ccccc3C1c1ccccc12 (configuration not stated),-1.3,1.3,8.3,-0.7,-21.5,-0.6%
CCc1cc(Cn2nc(C(=O)O)cc2-c2ccccc2)on1,-1.1,-2.9,5.1,-0.8,5.6,-1.8%
COc1cccc(NC(=O)c2ccncc2)c1,-0.5,-7.6,0.6,-0.3,3.3,1.0%
N/C(=N\c1nc2ccccc2o1)NC(=O)c1cccc(Br)c1,-3.9,-4.3,-3.1,-0.2,-1.9,?
CC(=O)C1=C(O)C(=O)N(CCc2c[nH]c3ccccc23)C1c1ccco1 (configuration not stated),-1.1,-10.3,-6.2,1.0,-11.3,-4.1%
CCOc1ccc2[nH]c3c(N4CCN(C(=O)c5ccco5)CC4)ncnc3c2c1,-0.4,-2.5,-26.6,0.0,?,6.8%
COC(=O)COc1ccc(S(=O)(=O)NCc2cccnc2)cc1C,-1.7,-18.2,3.1,-0.2,3.4,2.1%
COc1ccc(-c2nc(CS(=O)CC(=O)NCc3ccco3)c(C)o2)cc1OC (configuration not stated),8.5,-5.4,1.0,0.1,-4.5,1.8%
Cc1cc(C(F)(F)F)n2ncc(-c3ccccc3)c2n1,-1.6,2.6,-6.2,-0.5,-8.7,-1.0%
Cc1cc(S(=O)(=O)Nc2ccc3c(c2)n(C)c(=O)n3C)ccc1F,-4.1,-0.9,-16.0,0.6,-11.1,5.9%
Cc1cc(=O)[nH]c(N2CCN(C(c3ccccc3)c3ccccc3)CC2)n1,-0.8,-17.9,0.0,1.6,24.3,-2.7%
O=C1COc2ccc(C(=O)COC(=O)Cc3ccc(Cl)cc3)cc2N1,-0.1,-1.5,7.2,0.0,-4.7,4.0%
NCCCn1c(C(=O)c2ccc(Cl)cc2)c2ccc([N+](=O)[O-])cc2[n+]1[O-],6.4,11.0,-14.5,-0.3,-3.5,-0.2%
O=[N+]([O-])c1ccccc1OCC(O)CN1CCN(CC(O)COc2ccccc2[N+](=O)[O-])CC1 (configuration not stated),-1.9,-65.5,nt,-0.1,3.6,-0.6%
CCOC(=O)C1CCN(C(=O)Nc2ccc(OC)c(OC)c2)CC1,-0.2,-5.3,3.3,0.4,3.6,?
Cc1cc(C(=O)NCC(c2ccco2)N(C)C)ccc1[N+](=O)[O-] (configuration not stated),-3.7,-19.7,0.6,0.1,-1.2,0.1%
O=C(NCCc1ccc(Cl)cc1)c1cccs1,0.5,-6.3,2.0,2.8,26.9,0.6%
CSc1ccc(/C=N/N2CCN(C)CC2)cc1,3.3,-1.6,-21.4,0.3,-6.7,1.4%
CN1CCc2c(sc3c2C(=O)NC(c2ccco2)N3)C1 (configuration not stated),1.2,-3.5,-6.0,1.4,-12.8,?
COCCN(Cc1ccccc1)C(=O)c1cccc(S(=O)(=O)N2CCN(c3ccc(F)cc3)CC2)c1,2.6,-24.3,9.9,1.0,-11.4,-3.4%
Brc1ccccc1/C=N/Nc1nc2ccccc2o1,-4.5,-3.1,4.4,0.0,-4.0,0.5%
C[C@@H](C(=O)NC1CCCC1)N1C(=O)N2CCc3c([nH]c4ccccc34)[C@@]2(C)C1=O,-3.9,-33.2,-6.7,nt,-6.6,1.2%
CCN(CC)Cc1c(C)[nH]c2ccc(NC(C)=O)cc2c1=O,-1.6,-3.8,-11.4,0.4,0.1,1.5%

# Looked up by structure from the entries so far (2):
SMILES,D2 ag,D2 PAM,CtBP-E1A blk,TRPML1 agonist,Six1-Eya2 blk,PINK1 expr mod
CN1CCc2c(sc3c2C(=O)NC(c2ccco2)N3)C1 (configuration not stated),1.2,-3.5,-6.0,1.4,-12.8,?
COc1cccc(NC(=O)c2ccncc2)c1,-0.5,-7.6,0.6,-0.3,3.3,1.0%

# (further entries)
SMILES,D2 ag,D2 PAM,CtBP-E1A blk,TRPML1 agonist,Six1-Eya2 blk,PINK1 expr mod
CCn1cc(C(=O)N2CCCCC2)c(=O)c2cc(S(=O)(=O)N3CCC(C)CC3)ccc21,-0.9,-0.3,1.2,-0.8,-1.8,-0.5%[38.3 µM]
O=C(COc1cccc2cccnc12)N1CCc2ccccc21,-2.8,-18.1,-2.9,2.9,3.0,2.5%
Cc1ccc2c(=O)[nH]c(Cc3ccccc3C(=O)O)nc2c1,9.3,10.2,nt,2.2,-16.3,0.0%
O=C(Nc1ccc2nc3ccccc3nc2c1)c1ccc(Br)cc1,2.5,2.2,2.3,0.5,-11.3,0.1%
CC(Sc1nc2c(c(=O)[nH]1)CCCC2)C(=O)Nc1ccc(S(N)(=O)=O)cc1 (configuration not stated),-2.8,2.9,5.1,0.7,-0.3,4.4%
Cc1ccc(NC(=O)Nc2ccc3c(c2)OCO3)nc1,0.5,-10.4,nt,0.2,2.6,4.7%
O=C(NCc1ccc2c(c1)OCO2)c1ccc(S(=O)(=O)NCC2CCCO2)cc1 (configuration not stated),-4.5,1.1,8.1,-0.7,-0.4,-0.5%
CCc1ccc2nc(NC(=O)CCCc3cccs3)sc2c1,-2.7,3.9,-1.9,0.7,2.9,2.1%
C/C(CCS(=O)(=O)c1ccccc1)=N/O,0.1,3.1,8.7,0.3,13.4,0.8%
CCOC(=O)c1[nH]c2ccc(OC)cc2c1NC(=O)CCN1CCN(Cc2ccccc2)CC1,-4.0,-42.9,-1.4,0.0,-3.8,-1.7%
CC(C)n1nnnc1C1c2ccccc2C(=O)N1CCc1ccc(O)cc1 (configuration not stated),nt,nt,6.0,-0.1,6.3,0.7%
O=S1(=O)CC(O)C(N2CCC(c3ccccc3)CC2)C1 (configuration not stated),-0.3,-9.6,-18.2,-0.5,-0.3,-2.6%[38.3 µM]
Cc1ccc(NC(=O)NCCCN2CCOCC2)cc1,1.5,-21.5,0.8,0.7,-8.2,-0.8%
CC(=O)Nc1ccc(NC(=O)C(C)OC(=O)C2CCN(S(=O)(=O)c3ccc4c(c3)OCCO4)CC2)cc1 (configuration not stated),-6.2,-8.4,-6.2,-0.6,-9.5,3.8%
Cc1cc(C)cc(N(CC(=O)NC2CC3CCC2C3)S(C)(=O)=O)c1 (configuration not stated),-4.1,1.6,5.5,0.9,0.3,-1.3%
CC(C)(C)C(=O)N(Cc1ccccc1)c1ccccn1,-3.9,-5.1,6.2,0.0,14.3,1.6%
COCc1nnc(NC(=O)c2cc(Cl)ccc2OC)s1,-2.0,-3.1,7.4,-0.1,-1.4,0.0%
COc1ccc(CCn2c(=N)c(C(=O)NCCN3CCOCC3)cc3c(=O)n4cccc(C)c4nc32)cc1OC,2.1,0.8,?,0.8,?,0.0%
Fc1ccc(-c2nnc3ccc(N4CCc5ccccc5C4)nn23)cc1,-30.2,-4.4,-3.9,-0.5,-21.4,-0.7%
O=C(Cn1nnc(-c2ccccc2)n1)NCc1cccs1,0.6,-5.1,17.8,1.8,-1.9,-0.1%[38.3 µM]
COc1cccc(-c2nn(C)c3sc(C(=O)Nc4ccc5c(c4)OCCO5)cc23)c1,1.5,-29.1,-21.6,1.8,-15.9,5.0%
COc1ccc(-c2noc(N3CCC(C(=O)Nc4cccc(OC)c4)CC3)n2)cc1,-2.0,-6.8,-8.5,0.3,0.1,1.1%
Cc1ccccc1CNC(=O)c1[nH]c(C(F)(F)F)nc1-c1ccccc1,-2.2,-6.3,-4.1,-0.4,-7.8,-0.4%
COc1ccc(C(=O)N2CCCC(c3cc(C(=O)NCc4ccc(F)cc4)no3)C2)cc1 (configuration not stated),-4.2,-3.7,0.0,-1.0,25.7,-0.4%
O=C(Nc1ncc(Cc2ccccc2Cl)s1)c1ccc([N+](=O)[O-])cc1,0.5,-3.5,5.5,1.4,7.3,4.9%
O=C(Nc1cccc(F)c1)Nc1cccc(Cl)c1,0.5,-6.9,-6.3,0.8,9.1,?
O=C(CSc1nc2c(cnn2-c2ccc(F)cc2)c(=O)[nH]1)Nc1nccs1,-0.4,-5.3,0.3,-0.2,-0.3,0.9%
COc1ccc2ccccc2c1/C=N/NC(=O)c1ccc(C)nc1,-6.4,-9.7,nt,0.4,-9.0,1.4%
COCc1ccc(CN2CCCC(C(=O)Nc3ccccc3-c3ccc(OC)cc3)C2)o1 (configuration not stated),-1.4,-25.9,2.8,-0.4,-5.5,-0.2%
CCCn1c(SCC(=O)NCc2ccc(C)cc2)n[nH]c1=O,-3.4,-1.6,-8.5,0.2,4.7,-1.0%
CC(C)CC(=O)Nc1ccc(F)c(Cl)c1,-2.4,-5.2,1.8,-0.1,7.3,8.9%[38.3 µM]
O=C(NC(=S)N(Cc1ccccc1)Cc1ccccc1)c1ccccc1F,-5.8,-22.1,4.8,3.3,-1.8,-2.2%
CCOc1ccccc1N1CCN(CC(=O)Nc2ccnn2C2CCCC2)CC1,14.7,-3.9,1.2,0.2,3.6,0.7%
COCC1CCCN(Cc2nc(-c3ccc4c(c3)OCO4)no2)C1 (configuration not stated),2.7,3.0,3.1,-0.5,1.0,-0.4%
CNC(=O)C[C@H]1C(=O)N(CCc2ccccc2)C[C@@H]1C,-4.9,-0.2,-3.1,-0.5,1.2,0.9%
CN(C)c1ccc(/C=N/Nc2cccc(C(=O)O)c2)cc1,7.2,-6.8,17.5,2.6,11.0,-3.3%
Cc1ccc(-c2nnn(CC(=O)N(Cc3ccccc3)C(C(=O)NC(C)(C)C)c3ccncc3)n2)o1 (configuration not stated),-0.8,-4.4,1.1,-0.3,-1.7,1.1%[38.3 µM]
COc1cccc(CNc2nc3cc(-c4ccsc4)sc3c(=O)n2C)c1OC,11.8,-0.8,-2.4,-0.8,-7.7,1.5%
CC(=O)NCCNC(=O)C1(C)Cc2c(-c3cccc(C(N)=O)c3)ccnc2O1 (configuration not stated),-3.3,-5.3,-16.9,0.0,3.2,0.9%
Cc1nc(C(=O)N2CCOCC2)sc1C1(C)CC(c2ccccc2)=NO1 (configuration not stated),-3.0,-8.6,-5.9,4.1,3.7,-0.7%
CCCCN(CCCC)C(=O)c1sc2nc(N3CCOCC3)c3c(c2c1N)CCCC3,-6.2,-9.3,-4.6,0.7,-6.0,4.6%
Cc1ccc(NC(=O)c2ccc(CNS(=O)(=O)c3cccc(C(F)(F)F)c3)cc2)cc1,-0.2,25.2,2.5,-0.9,9.8,1.6%
